PK Bst – alters activity of Bacillus stearothermophilus pyruvate kinase; partly purified Bacillus stearothermophilus pyruvate kinase, luminescence ATP production; ribose 5-phosphate activator present at AC10; Potency, µM; 51,000 tested, 1.2% active; AID 361; in the data active means potency below about 11 µM; inconclusive means mostly about 12 µM to 25 µM; inactive means weaker than that;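 the screen sought inhibitors and activators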;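 further: potency means the concentration at half of the fitted maximal effect; scaled between full activation by ribose 5 phosphate and full inhibition by luteolin; about four in five hits inhibit and the cells do not say which; series up to 57 µM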
TsaE inh – inhibitors of E. coli YjeE (TsaE); P0AF67; purified YjeE, fluorescence polarisation of a bound ADP probe; Potency, µM; 71,000 tested, 0.05% active; AID 605; active = well fitted falling curve; inconclusive = weaker or top-dose-only fall, or a rising curve; inactive = flat or poorly fitted curve;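 further: top concentration of the series not given in the record; excess ADP was the control for the full effect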
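Fluorescence polarization of a BODIPY Texas Red–ADP probe (2 uM) bound to purified YjeE (10 uM) was read after 15 min room-temperature incubation with compounds. Loss of polarization marks inhibitors; ADP serves as titrated control.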
Active calls of the source: *; i = inactive; ? = inconclusive; · = no result given. The list is partial (hit frequency here may not be typical).

smiles | TsaE inh | PK Bst
COc1ccc(S(=O)(=O)N2CCC(C(=O)Nc3ccccc3C)CC2)c2cccnc12 | i | >57
O=S(=O)(NC1CC1)c1cccc(S(=O)(=O)N2CCCC2)c1 | i | >57
CCn1cc(C(=O)OCc2cccc(Br)c2)c(=O)c2ccc(C)nc21 | i | ·
CCOC(=O)N1CCN(S(=O)(=O)c2cc(Br)cc3c2N(C(=O)C2CC2)CC3)CC1 | i | >57
CN(C)S(=O)(=O)N(CC(=O)Nc1ccccc1C(F)(F)F)c1ccccc1 | i | >57
CC(C)(C)C1CCC(OC(=O)c2ccncc2)CC1 (stereo not drawn) | i | >57
CC(=NCc1ccco1)c1c(O)n(C2CCCCC2)c(=O)[nH]c1=O | i | ·
Cn1nc(C(=O)NCC2CCCO2)c2ccccc2c1=O (stereo not drawn) | i | >57
CC(=O)Nc1cccc(NC(=O)CSc2nnc(Cc3cccn3C)n2CCc2ccccc2)c1 | i | >57
COc1ccc(-n2c(C)c(C(C)=O)c(C(C)=O)c2C)cc1OC | i | ·
COc1cccc(CNCC(=O)N2C(C)CCCC2C)c1 (stereo not drawn) | i | >57
COCCn1c(=O)c(-c2cccs2)nc2cnc(Oc3cccc(Cl)c3)nc21 | i | ·
CCCc1cn(S(=O)(=O)c2ccc(OC)cc2OC)nc1N | i | >57
COc1cccc(C2=CC(c3ccc(C)cc3)n3ncnc3N2)c1 (stereo not drawn) | i | ·
COCCNC(=O)CN1CCN(C(c2ccccc2)c2ccccc2)CC1 | i | >57
O=C(NCc1ccc2c(c1)OCO2)c1ccc2c(=O)n(C3CCCC3)c(=O)[nH]c2c1 | i | >57
c1ccc2c[n+](CCCC[n+]3ccc4ccccc4c3)ccc2c1 | i | ·
COc1ccc(C)cc1-n1nnnc1SCC(=O)NC(=O)NCc1ccco1 | i | >57
Cc1ccc(CNc2nc3c([nH]2)c(=O)n(C)c(=O)n3C)cc1 | i | >57
O=C(CSc1nc(-c2ccccc2)nc2c1CCCC2)N1CCOCC1 | i | >57
COc1ccccc1N(CN1CCCC1=O)C(=O)COc1ccccc1 | i | >57
COc1ccc(C(C)=O)cc1COC(=O)c1cc(C)oc1C | i | >57
O=C(CCCCCNc1nc(=S)[nH]c2ccccc12)N1CCN(c2ccccn2)CC1 | i | ·
CC(=O)N1CCC2(CCCN(C(c3ccccc3)c3ccccc3)C2)CC1 | i | ·
Cc1ccc(C)c(NC(=O)C2CC(O)CN2C(=O)OCc2ccccc2)c1 (stereo not drawn) | i | ·
CCOC(=O)N1CCN(c2c(NCCCOC(C)C)c(=O)c2=O)CC1 | i | ·
CCc1ccc(OCC(=O)N(C)C2CCS(=O)(=O)C2)cc1 (stereo not drawn) | i | >57
O=C(O)C1Nc2c(O)cccc2C2C=CCC12 (stereo not drawn) | i | ·
Cc1c(C(=O)NCc2ccco2)sc2nc(-c3ccccc3)cn12 | i | ·
COc1ccc(NS(=O)(=O)c2ccc3c(c2)oc(=O)n3C)c(OC)c1 | i | ·

Compound profiles, from the list above. Order of screens: TsaE inh, PK Bst
Results for COc1ccccc1N(CN1CCCC1=O)C(=O)COc1ccccc1 : i, >57
Results for CCc1ccc(OCC(=O)N(C)C2CCS(=O)(=O)C2)cc1 (stereo not drawn) : i, >57
Results for O=C(O)C1Nc2c(O)cccc2C2C=CCC12 (stereo not drawn) : i, ·
Results for Cc1ccc(C)c(NC(=O)C2CC(O)CN2C(=O)OCc2ccccc2)c1 (stereo not drawn) : i, ·
Results for CCOC(=O)N1CCN(c2c(NCCCOC(C)C)c(=O)c2=O)CC1 : i, ·

(next part)
smiles | TsaE inh | PK Bst
CCn1nnnc1-c1ccc(OC)c(S(=O)(=O)N2CCCCC2)c1 | i | >57
CCOC(=O)c1c(-c2ccccc2)c(C(C)=O)c(=O)n(C)c1C | i | ·
CC1CCCC(C)N1CCNC(=O)Cn1nc(-c2ccccc2)ccc1=O (stereo not drawn) | i | >57
O=C(Cc1cccs1)Nc1ccc2c(c1)C(=O)OC2 | i | >57
CCN(CC)C(=O)CN(C#N)c1nc(OC)nc(N(C)C)n1 | i | >57
COC(=O)C1=C(C)NC2=C(C(=O)CCC2)C1c1coc2ccccc2c1=O (stereo not drawn) | i | ·
Cc1cc(C)nc(SC2=CS(=O)(=O)c3ccccc32)n1 | i | >57
O=C1c2ccccc2C(=O)N1Cc1nc2ccccc2c(=O)n1CCN1CCOCC1 | i | >57
Cc1ccc(-c2cc(C(=O)NCC3CCCO3)no2)cc1 (stereo not drawn) | i | i
O=C(Nc1cccc(F)c1)N1CCC2(CC1)CCN(C(=O)c1ccncc1)CC2 | i | ·
COc1ccc(Cn2nnnc2C(c2ccccc2Cl)N2CCN(C)CC2)cc1 (stereo not drawn) | i | >57
COc1ccc(Cl)cc1S(=O)(=O)N1CCN(C(=O)c2ccco2)CC1 | i | ?
COc1c2ccoc2cc2oc(=O)ccc12 | i | ·
Cc1cccc2cc(COC(=O)c3ccco3)c(=O)[nH]c12 | i | >57
CCCOc1ccc(N2CC(C(=O)Nc3ccccc3C(=O)NCc3ccco3)CC2=O)cc1 (stereo not drawn) | i | >57
Nc1cc(C(=O)OCC(=O)NCc2ccco2)ccc1Cl | i | >57
COc1cccc(Cn2c(=O)c(-c3cccc(C#N)c3)nc3cnc(N4CCN(C)CC4)nc32)c1 | i | ·
CS(=O)(=O)NCCCc1ccccc1 | i | ·
Cc1ccc(S(=O)(=O)NC(CN2CCOCC2)=NCCNS(=O)(=O)c2ccccc2)cc1 | i | >57
c1cc(CSSCc2ccncc2)ccn1 | i | ·
CCN(Cc1cc2ccc(C)cc2[nH]c1=O)C(=O)c1ccncc1 | i | >57
CCOC(=O)C1CCCN(S(=O)(=O)c2ccc(Br)c(OC)c2)C1 (stereo not drawn) | i | >57
COc1ccc(S(=O)(=O)N(C)CC(=O)Nc2ccccc2SC)cc1 | i | >57
O=C(c1ccco1)N1c2ccccc2Sc2ccccc21 | i | >57
CCN1C(=O)/C(=C2\SC(=S)N(CC3CCCO3)C2=O)c2ccccc21 (stereo not drawn) | i | ·
COc1ccccc1CNc1ncnc2ccc(-c3ccc(N(C)C)cc3)cc12 | i | ·
O=C(CSc1nnc(-c2ccccc2)o1)c1ccc2c(c1)OCCO2 | i | >57
CN(C(=O)CSc1nnc(-c2ccco2)o1)C1CCCCC1 | i | >57
Cc1noc(C)c1S(=O)(=O)Nc1ccc(C(=O)NC2CCCCC2)cc1 | i | >57
Cc1ccc(-c2[nH]n3c(=O)c4c(nc3c2C)CCCC4)cc1 | i | i
CC[N+](C)(CC)CC(=O)Nc1c(C)cccc1C | i | ·
COc1cccc(N2CC(O)Cn3c2nc2c3c(=O)n(CCCc3ccccc3)c(=O)n2C)c1 (stereo not drawn) | i | >57
CCOC(=O)CN1CC23C=CC(O2)C(C(=O)Nc2ccc4c(c2)OCO4)C3C1=O (stereo not drawn) | i | ·
Clc1ccccc1COc1ccccc1-c1nnco1 | i | >57
CC(C)Nc1nc(NC(C)C)nc(N(C)C#N)n1 | i | >57
CCC(=O)Nc1ccc(-c2nnc(SCC(=O)NCC3CCCO3)n2C)cc1 (stereo not drawn) | · | >26
CC(C)(CO)NC(=O)CCCOc1ccc(Cl)cc1Cl | i | ·
COc1cccc2cc(C(=O)C3=C(O)C(=O)N(CCN(C)C)C3c3ccc(F)cc3)oc12 (stereo not drawn) | i | >57
N=C(N)SCCc1ccncc1 | i | ·
C=CCn1c(SCC(=O)N2CCOCC2)nc2sc3c(c2c1=O)CCCC3 | i | >57
N#Cc1c(SCC(N)=O)nsc1SCc1ccccc1Cl | i | >57
Clc1ccc(-c2nnc(-c3ccccc3)o2)c(Cl)c1 | i | 2.5*
CC(C)n1c(-c2cccnc2)nc2cnccc21 | i | >57
COC(=O)Nc1sccc1C(=O)Nc1sccc1C(=O)OC | i | >57
O=S(=O)(NCCCCCNS(=O)(=O)c1ccc(F)cc1)c1ccc(F)cc1 | i | >57
O=C(c1cccc2c1C(=O)N(Cc1cccnc1)C2)N1CCN(c2ccccc2)CC1 | i | >57
O=C(NCC(=O)N1CCC(N2CCCCC2)CC1)C1CCCCC1 | i | >57
CCOc1ccc(NS(=O)(=O)c2ccc(OCC(=O)NCCCOC)cc2)cc1 | i | >57
COc1ccc(-c2nnc(SCC(=O)NC3CCCCC3)o2)cc1OC | i | ·
C=CCNc1nc2c(c(=O)n(C)c(=O)n2C)n1CC | i | ·

Remaining list, next part.
smiles | TsaE inh | PK Bst
O=C(CN1CCSCC1)N1CCc2[nH]c3ccc(Br)cc3c2C1 | i | ·
Cn1c(N2CCCC2)nc2c1c(=O)n(Cc1cccc(F)c1)c(=O)n2C | i | >57
COCCOC(=O)C1=C(C)N=C2SCCC(=O)N2C1c1cccc(Br)c1 (stereo not drawn) | i | >57
N#CC1=C(N)SC(N)=C(C#N)C1c1c(Cl)cccc1Cl | i | >57
CC(C)Oc1cccc(-n2c(CCc3c[nH]c4ccc(Br)cc34)nc3ccccc3c2=O)c1 | i | ·
Cc1nn(-c2ccccc2)c(OC(=O)c2cccs2)c1S(=O)(=O)c1ccccc1 | i | >57
Cc1oc2c(CN3CCOCC3)c(O)ccc2c(=O)c1-c1ccc(Br)cc1 | i | >57
O=S(=O)(NCc1cn2ccccc2n1)c1cc(F)ccc1F | i | >57
CC1Cc2ccccc2N1C(=O)CSc1nnc(-c2ccc(S(=O)(=O)N3CCCC3)cc2)o1 (stereo not drawn) | i | >57
O=C(O)[C@@H]1CS[C@@]2(CCCN(Cc3ccccc3)C2)N1 | i | ·
COC(=O)c1c(-c2cccs2)csc1NC(=O)CN1CCOCC1 | i | ·
CN(CC(=O)O)Cc1c[nH]c2ccccc12 | i | ·
CCc1c(C)nc2cc(-c3ccc(OC)cc3)[nH]n2c1=O | i | ?
Cc1cc(OCC(=O)N2CCOCC2)ccc1NC(=O)C1CCCCC1 | i | >57
Cc1ccc(C(=O)[C@@H]2[C@@H]3[C@@H](C(=O)[C@@H]4OC[C@H]3O4)[C@@H]3C=Cc4ccccc4N23)cc1 | i | ·
CN1CCN(CCCCC(=O)c2ccccc2)CC1 | · | >26
O=C(Nc1nnc(CCc2ccccc2)s1)c1ccco1 | i | ·
COc1ccc(O)c(C=Nc2cc(C)on2)c1 | i | ·
COc1ccc(C2C(C(=O)NCc3ccco3)CCC(=O)N2c2ccc(OC)cc2)cc1 (stereo not drawn) | i | >57
CCOC(=O)c1ccc(NS(=O)(=O)c2cc(-c3nnnn3CC)ccc2OC)cc1 | i | ·
COc1ccc(C(=O)N2CCC3(CCN(C(=O)Nc4cccc(C#N)c4)CC3)CC2)cc1 | i | ·
CCCC1Cc2c(sc3ncnc(N)c23)CO1 (stereo not drawn) | · | i
COc1ccc(C(=O)NCCn2ccc3ccccc32)c(OC)c1 | i | >57
C=CCn1c(SCC(=O)Nc2cc(C)ccc2C)nnc1-c1cnccn1 | i | >57
Cc1nc(C)c(-c2csc(NCc3ccccc3)n2)s1 | i | >57
CCOC(=S)SCC(=O)O | i | ·
CCOc1ccccc1-c1nc(-c2ccc(NC(=O)Cc3ccccc3OC)cc2)no1 | i | >57
CC(CCl)OC(C)CCl (stereo not drawn) | i | ·
Cc1ccc(C)c(-c2nnc(OCC(=O)Nc3cc(C)on3)c3ccccc23)c1 | i | >57
Cc1nc2cc(CO)ccc2s1 | i | >57
CCOc1ccccc1NC(=O)C1CCCN(S(=O)(=O)c2cccc3nsnc23)C1 (stereo not drawn) | i | ·
Cc1ccc2cccc(S(=O)(=O)Nc3c(C)n(C)n(-c4ccccc4)c3=O)c2n1 | i | ·
CCC(=O)N1CCc2cc(Br)cc(S(=O)(=O)CCC(=O)NCC3CCCO3)c21 (stereo not drawn) | i | >57
COCCCNC(=O)CCc1nc2cccnc2n1Cc1ccc(OC)cc1 | i | >57
CCOc1ccc(C2=CS/C(=C(\C#N)c3nnc4n3CCCCC4)N2CC)cc1 | i | >57
N#C/C(=C\C1CC=CCC1)c1nc2ccccc2[nH]1 (stereo not drawn) | i | >57
CC1(C)CC(=O)C2=C(C1)NC(SCC(=O)Nc1ccccc1)=C(C#N)C2c1ccco1 (stereo not drawn) | i | i
O=C(OCC(=O)N1CCCC1)c1ccccc1OCc1ccccc1 | i | >57
Clc1ccccc1-c1nc(NCc2cccnc2)c2ccccc2n1 | i | ·
Brc1ccc(-c2nnc(-c3ccccc3Br)o2)cc1 | i | ·
CCOC(=O)c1cc(C)n(-c2c(C)n(C)n(-c3ccccc3)c2=O)c1C | i | >57
CCC(=O)N1CCN(CCN=CC2=C(O)CC(C)(C)CC2=O)CC1 | i | ·
C[N+](C)([O-])Cc1cc(-c2ccccc2)ccc1O | i | ·
CC(C)=C1C(=O)C(c2ccccc2)=C2CN3C(=O)N(CCc4ccccc4)C(=O)[C@]3(C)[C@H]21 | i | ·
COC(=O)c1ccccc1NC(=O)NC1CCN(Cc2ccccc2)CC1 | i | >57
CN(c1ccc(C(=O)NCc2ccncc2)cc1)S(C)(=O)=O | i | >57
Cn1cccc1C(=O)NS(=O)(=O)c1ccccc1Cl | i | >57
COC(=O)[C@@]1(Cc2ccc(OC)cc2)[C@H]2c3cc(C(=O)N(C)C)n(Cc4ccc(OC(F)(F)F)cc4)c3C[C@H]2CN1C(=O)c1ccccc1 | i | ·
